Rango-impB inh = qHTS Assay for Inhibitors of Rango (Ran-regulated importin-beta cargo) - Importin beta complex formation; Potency, µM (series often up to 92.2 µM), for the others: at the highest dose inhibition of complex formation; Rango CFP/YFP FRET sensor + importin beta, 45 min; AID 540263, 2011; 0.031% of 340,000 active; active = rising FRET ratio curve, often small or poorly fitted; inconclusive = mostly compound fluorescence or quenching in the first reads; inactive = flat curves in all reads;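 also: potency is read from the fitted curve at half-maximal effect; 0% = DMSO wells and 100% = buffer wells lacking importin beta; nearly all actives have a fitted effect of over 15% in size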
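Inhibition scored from the CFP 486 nm/YFP 530 nm FRET ratio 45 min after adding 0.125 microM importin beta to 50 nM Rango biosensor preincubated 5 min with compound (room temperature, PBS with DTT, Tween-20, BSA). No-importin wells as positive control.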
GLA inh pH 4.5 = qHTS Assay for Inhibitors of Human alpha-Galactosidase at pH 4.5 | purified enzyme, 4-MU-alpha-Gal fluorescence, pH 4.5 | activity change, negative = inhibition, % at 105 µM | 230,000 tested, under 10 active | AID 1467, 2008; inconclusive = small, poorly fitted or top-dose-only inhibition, or a rising curve; inactive = flat fitted curve, though single readings scatter; no compound was filed as active;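 also: 0% = full activity with enzyme and -100% = basal without enzyme; dose as in the result columns while the protocol names 77 µM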
Target sequence (P06280 whole entry, looked up): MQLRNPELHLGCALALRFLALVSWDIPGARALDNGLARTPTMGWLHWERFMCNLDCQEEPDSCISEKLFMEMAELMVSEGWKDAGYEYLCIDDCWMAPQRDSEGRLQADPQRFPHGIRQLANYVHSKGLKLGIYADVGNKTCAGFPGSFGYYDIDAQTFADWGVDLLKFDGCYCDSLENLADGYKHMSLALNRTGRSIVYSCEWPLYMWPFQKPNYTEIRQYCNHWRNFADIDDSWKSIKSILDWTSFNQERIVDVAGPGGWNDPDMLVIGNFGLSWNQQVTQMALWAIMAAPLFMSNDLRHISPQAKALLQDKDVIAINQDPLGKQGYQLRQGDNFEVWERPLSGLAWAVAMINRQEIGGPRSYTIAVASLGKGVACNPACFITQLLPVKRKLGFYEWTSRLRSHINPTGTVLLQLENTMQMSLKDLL
Rango release inh = qHTS Assay for Inhibitors of RanGTP induced Rango (Ran-regulated importin-beta cargo) - Importin beta complex dissociation; Biochemical FRET Rango-importin beta, RanGTP-induced dissociation; Snurportin-1 (Homo sapiens) + GTP-binding nuclear protein Ran (Homo sapiens) + Importin …; Potency, µM (top dose mostly 46.1 µM), for inactives: at the highest dose activity change, negative = inhibition; 0.071% of 340,000 active; active means falling FRET ratio curve, often poorly fitted, with flat reads before Ran was added; inconclusive means other falling curves, or compound fluorescence or quenching; inactive means flat or rising ratio curve;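 also: potency is read from the fitted curve at half-maximal effect; % of control where 0% means no effect; nearly all actives have a fitted effect of over 45% in size; -100% = wells without RanGTP and RCC1; the record marks most hits as doubtful in a second field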
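Rango/importin beta premix (0.1/0.25 uM final), PBS + 1 mM DTT + 0.02% Tween-20 + 0.1% BSA; cpd 5 min RT; FRET pre-read; + RanGTP-RCC1 (0.6 uM Ran, 2 mM GTP, 0.2 uM RCC1); 45 min RT; FRET post-read, ex 430, em 486/530 nm.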
miR-21 FLuc = qHTS Assay for Modulators of miRNAs and/orActivators of miR-21. HeLa miR-21 FLuc reporter, luciferase, 48 h. Potency, µM (series often up to 38.3 µM), without a hit: at the top dose reporter change, positive = more light. 340,000 tested, under 10 active; active = well fitted rising curve with a large enough effect; inconclusive = small, poorly fitted or top-dose-only effect; inactive = no such curve, though single readings can be large or run the other way;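 also: % of control where 0% means no effect; miR-21 action dims this reporter so a rising signal means less miR-21 action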
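Luminescence from a firefly luciferase reporter carrying a miR-21 binding site downstream, stably expressed under a CMV promoter in HeLa cells that make miR-21 endogenously, reports miRNA modulation after 48 h compound exposure up to approximately 40uM final.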
Active calls of the source: *.

Screening COCP(=O)(c1ccccc1)c1ccccc1 returned Rango-impB inh -1.7%, GLA inh pH 4.5 -2, Rango release inh 0% and miR-21 FLuc -2%.
`O=C(c1ccccc1)N1CCN(S(=O)(=O)c2cccs2)CC1` gave Rango-impB inh 0.2%, Rango release inh 1% and miR-21 FLuc -4%.
`O=C(NCc1nc2ccccc2[nH]1)c1ccc(Cl)c(S(=O)(=O)N2CCCC2)c1` gave Rango-impB inh -0.4%, GLA inh pH 4.5 -6, Rango release inh 3% and miR-21 FLuc 0%.
`O=c1c(-c2ccc(Br)cc2)[n+]([O-])c2ccccc2n1OCc1ccccc1` gave Rango-impB inh 2.4%, GLA inh pH 4.5 3, Rango release inh -1% and miR-21 FLuc -9%.
`CC1=C(C(=O)Nc2ccccc2C(=O)N2CCCCC2)SCCO1` gave Rango-impB inh -0.8%, Rango release inh 2% and miR-21 FLuc -3%.
CCOC(=O)COc1ccc(-c2nnc(-c3ccccc3)o2)cc1 was read as Rango-impB inh 1.2%, GLA inh pH 4.5 5, Rango release inh 19% and miR-21 FLuc 9%.
`COc1ccc(N2CCN(c3nc4c(C)cccn4c(=O)c3C=C(C#N)C#N)CC2)cc1` gave Rango-impB inh -1.9%, Rango release inh -17% and miR-21 FLuc -4%.
CCS(=O)(=O)c1ccc(N=Nc2ccc(O)c3ncccc23)c(OC)c1 was read as Rango-impB inh -1.7%, GLA inh pH 4.5 -6, Rango release inh -7% and miR-21 FLuc inconclusive.
For CCn1c(C)c(CCC(=O)O)c(=O)n2nc(-c3ccccc3OC)cc12 the results were Rango-impB inh -0.9%, GLA inh pH 4.5 -2, Rango release inh 16% and miR-21 FLuc -1%.
Screening O=C(NNC(=O)c1sccc1-n1cccc1)c1cccc(Cl)c1 returned Rango-impB inh -1.2%, GLA inh pH 4.5 -1, Rango release inh 1% and miR-21 FLuc -2%.
For COc1ccccc1N(C(=O)c1ccco1)C(C(=O)NC1CCCC1)c1cccs1 (centres undefined) the results were Rango-impB inh -2.6%, Rango release inh -4% and miR-21 FLuc -5%.
Cc1c(O)ccc(C(=O)CN2CCN(c3ccc(F)cc3)CC2)c1O was read as Rango-impB inh 0.1%, Rango release inh -8% and miR-21 FLuc 7%.
O=Cc1cc(CCC(=O)O)ccc1O was read as Rango-impB inh -5.2%, Rango release inh inconclusive and miR-21 FLuc -1%.
`Cc1nc2cc(C(=O)O)ccc2n1-c1ccc(F)cc1F` gave Rango-impB inh -0.6%, GLA inh pH 4.5 6, Rango release inh 0% and miR-21 FLuc -9%.
Screening Cc1ccc(SCC(=O)NC2CCS(=O)(=O)C2)cc1C (centres undefined) returned Rango-impB inh 1.5% and Rango release inh 1%.
CC(/C=C/c1ccco1)=N/NC(=O)Cc1cccs1 was read as Rango-impB inh inconclusive, GLA inh pH 4.5 -1, Rango release inh -8% and miR-21 FLuc -18%.
For CC(C)C[C@H]1CN=C(Nc2ccccc2)N1CCCCc1ccccc1 the results were Rango-impB inh -1.1%, Rango release inh -5% and miR-21 FLuc 16%.
CCC(CO)NC(=O)c1ccc(-c2nn(C)c(=O)c3ccccc23)cc1 (centres undefined) was read as Rango-impB inh -0.8%, GLA inh pH 4.5 9, Rango release inh 3% and miR-21 FLuc -1%.
For CCc1ccc(NC(=O)c2sccc2-n2cccc2)cc1 the results were Rango-impB inh 1.1%, GLA inh pH 4.5 2, Rango release inh -10% and miR-21 FLuc -21%.
`O=C(CNS(=O)(=O)c1ccc(F)cc1)Nc1ccccc1` gave Rango-impB inh -5.9%, Rango release inh -14% and miR-21 FLuc -10%.
Screening O=S(=O)(c1ccc(Cl)cc1)N1CCN(c2ncnc3sccc23)CC1 returned Rango-impB inh 2.5% and Rango release inh 7%.
For Cc1nn(CC(=O)Nc2cccc(Cl)c2)c(=O)c2cc(-c3ccccc3)nn12 the results were Rango-impB inh -0.2%, Rango release inh -4% and miR-21 FLuc 1%.
Screening CN(Cc1ccccc1)C(=O)CC(=O)N(C)Cc1ccccc1 returned Rango-impB inh 5.6%, Rango release inh 5% and miR-21 FLuc -21%.
`CCc1ccccc1NC(=O)NNS(=O)(=O)c1cc(C)ccc1C` gave Rango-impB inh 6.3%, Rango release inh 0% and miR-21 FLuc 0%.

Gathered by group, the compounds so far containing a Cl atom (4)
`O=C(NCc1nc2ccccc2[nH]1)c1ccc(Cl)c(S(=O)(=O)N2CCCC2)c1` gave Rango-impB inh -0.4%, GLA inh pH 4.5 -6, Rango release inh 3% and miR-21 FLuc 0%.
Screening O=C(NNC(=O)c1sccc1-n1cccc1)c1cccc(Cl)c1 returned Rango-impB inh -1.2%, GLA inh pH 4.5 -1, Rango release inh 1% and miR-21 FLuc -2%.
Screening O=S(=O)(c1ccc(Cl)cc1)N1CCN(c2ncnc3sccc23)CC1 returned Rango-impB inh 2.5% and Rango release inh 7%.
For Cc1nn(CC(=O)Nc2cccc(Cl)c2)c(=O)c2cc(-c3ccccc3)nn12 the results were Rango-impB inh -0.2%, Rango release inh -4% and miR-21 FLuc 1%.

(continued)
Screening COc1ccc(CSc2nncn2C)cc1F returned Rango-impB inh 0.8%, GLA inh pH 4.5 7, Rango release inh 4% and miR-21 FLuc 1%.
For N/C(=N\OC(=O)Cc1ccc(Cl)cc1)c1ccncc1 the results were Rango-impB inh 0.4%, GLA inh pH 4.5 4, Rango release inh 1% and miR-21 FLuc -18%.
Screening CCC1=[N+]([O-])C(C)(/C(C)=N\O)N(O)C1(C)C (centres undefined) returned Rango-impB inh -2.7%, GLA inh pH 4.5 5, Rango release inh 22% and miR-21 FLuc 1%.
`Cc1ccc2c(c1)C(=O)CCN2` gave Rango-impB inh inconclusive, GLA inh pH 4.5 -5, Rango release inh inconclusive and miR-21 FLuc -1%.
CCc1cc(-c2n[nH]c(C)c2-c2nc3ccccc3s2)c(O)cc1OCC(=O)NN was read as Rango-impB inh 1.3%, GLA inh pH 4.5 -12, Rango release inh -9% and miR-21 FLuc 15%.
`CCc1ccccc1NNC(=O)c1cc(C)on1` gave Rango-impB inh -0.1%, GLA inh pH 4.5 -15, Rango release inh 8% and miR-21 FLuc -23%.
Cc1cc(Cl)cc(Br)c1OCCCNCC(C)O (centres undefined) was read as Rango-impB inh -0.1%, GLA inh pH 4.5 6, Rango release inh 0% and miR-21 FLuc -21%.
Screening CC(=O)Nc1ccc(S(C)(=O)=O)c(C)c1 returned Rango-impB inh 0.0%, GLA inh pH 4.5 -5, Rango release inh 1% and miR-21 FLuc -5%.
`CCOc1cc(CNCCO)cc(Br)c1OCc1ccc(Cl)cc1Cl` gave Rango-impB inh -0.4%, GLA inh pH 4.5 -3, Rango release inh 7% and miR-21 FLuc inconclusive.
For COc1cc2ncnc(NCc3ccccc3Cl)c2cc1OC the results were Rango-impB inh -3.5%, GLA inh pH 4.5 1, Rango release inh 2% and miR-21 FLuc 1%.
`C=CCNc1ccc(N2C(=O)C3CCC(C)CC3C2=O)cc1[N+](=O)[O-]` (centres undefined) gave GLA inh pH 4.5 0 and miR-21 FLuc -5%.
For O=C(COc1ncnc2sccc12)N1CCN(C(=O)c2ccco2)CC1 the results were Rango-impB inh -5.7%, GLA inh pH 4.5 -4, Rango release inh 20% and miR-21 FLuc -3%.
Screening CC(C)c1ccc(NC(=O)COC(=O)/C=C/c2cccc(Br)c2)cc1 returned Rango-impB inh -2.3%, GLA inh pH 4.5 4, Rango release inh -5% and miR-21 FLuc -6%.
Screening N#C/C(=C\c1ccc(O)c(O)c1)C(=O)c1ccc(O)c(O)c1 returned Rango-impB inh inconclusive, GLA inh pH 4.5 -4 and Rango release inh -5%.
Cc1ccc(C)c(NC(=O)c2ccc(S(=O)(=O)N(C)CC3CCCO3)cc2)c1 (centres undefined) was read as Rango-impB inh 0.4% and Rango release inh 6%.
`Cc1ccc(C(NC(=O)N2CCCC2)C(Cl)Cl)cc1F` (centres undefined) gave Rango-impB inh 1.8%, GLA inh pH 4.5 0, Rango release inh 0% and miR-21 FLuc -7%.
For COC(=O)c1cn[nH]c1NC(=S)Nc1ccccc1C the results were Rango-impB inh 7.5%, GLA inh pH 4.5 -20, Rango release inh 2% and miR-21 FLuc -38%.
For CN1OC[C@@H]2CN(Cc3cc(Cl)cc(Cl)c3)[C@H](c3cccc(-c4ccccc4)c3)C[C@@H]21 the results were Rango-impB inh -1.3% and Rango release inh -17%.
For Cc1cc2c(NCC(C)O)ncnc2s1 (centres undefined) the results were Rango-impB inh -2.4% and Rango release inh 15%.
Screening COc1ccc(C(=O)NC(=S)NC2CCCCC2)cc1 returned Rango-impB inh -1.3%, Rango release inh 0% and miR-21 FLuc -60%.
For Cc1ccc2nc(SCC(=O)Nc3cc(C)on3)[nH]c2c1 the results were Rango-impB inh -0.2%, GLA inh pH 4.5 -5, Rango release inh 35% and miR-21 FLuc -6%.
`Cc1cc(C)nc(N2CCCC(C(=O)Nc3nnc(C(C)(C)C)s3)C2)n1` (centres undefined) gave Rango-impB inh -0.2%, GLA inh pH 4.5 9, Rango release inh 1% and miR-21 FLuc -3%.
CN(CCOc1ccc(Cl)cc1)c1ccc(S(=O)(=O)N2CCCCC2)cn1 was read as Rango-impB inh -4.3%, GLA inh pH 4.5 -2, Rango release inh 6% and miR-21 FLuc 14%.
For O=c1oc(-c2ccc(Br)o2)nc2ccccc12 the results were Rango-impB inh 0.4%, GLA inh pH 4.5 8, Rango release inh 3% and miR-21 FLuc -25%.
For Cc1nc2c(=O)n(C)c(=O)n(C)c2nc1Cl the results were Rango-impB inh -2.0%, GLA inh pH 4.5 2, Rango release inh -12% and miR-21 FLuc inconclusive.
Screening O=C(N/N=C\c1cc(Br)cs1)c1ccncc1 returned Rango-impB inh 2.9%, GLA inh pH 4.5 -4, Rango release inh 8% and miR-21 FLuc -10%.
Screening CCCCn1c(N)c(N(CC(C)C)C(=O)CN(C)S(=O)(=O)c2ccc(NC(C)=O)cc2)c(=O)[nH]c1=O returned Rango-impB inh -4.6% and Rango release inh -2%.
For Cn1cnc2c(N/N=C/c3cccs3)ncnc21 the results were Rango-impB inh 1.2%, GLA inh pH 4.5 -1, Rango release inh 19% and miR-21 FLuc -33%.
For CN1CCN(CCCN(Cc2ccco2)C(=S)Nc2ccc(Cl)cc2)CC1 the results were Rango-impB inh 3.3%, GLA inh pH 4.5 1, Rango release inh 12% and miR-21 FLuc -2%.
Screening CSc1ccccc1NC(=O)c1cccs1 returned Rango-impB inh 6.8%, GLA inh pH 4.5 -4, Rango release inh 4% and miR-21 FLuc -11%.
COc1ncnc2c1N[C@@](C)(O)c1c(F)c(F)c(F)c(F)c1S2 was read as Rango-impB inh 1.7%, GLA inh pH 4.5 -5, Rango release inh 0% and miR-21 FLuc -11%.
O=[N+]([O-])c1ccc2nc(CCCO)[nH]c2c1 was read as Rango-impB inh -1.7%, GLA inh pH 4.5 -21, Rango release inh -4% and miR-21 FLuc 1%.
Screening O=C(c1ccc[nH]c1=S)N1CCN(S(=O)(=O)c2ccc(Br)cc2Cl)CC1 returned Rango-impB inh -0.7%, Rango release inh 13% and miR-21 FLuc -1%.
`Cn1cc(S(=O)(=O)N2CCCC2)cc1C(=O)O` gave Rango-impB inh 3.8% and Rango release inh -1%.
`Cc1cc(C)c2nc(N3CCN(C(=O)c4cccs4)CC3)sc2c1` gave Rango-impB inh 5.6% and Rango release inh -23%.
`Cc1cccc(Nc2ccc(NCc3ccccc3)nn2)c1` gave Rango-impB inh 2.7%, GLA inh pH 4.5 -13, Rango release inh 6% and miR-21 FLuc -37%.
`CC1CC(O)(CC(O)(c2ccccc2)c2ccccc2)C(C)CN1C` (centres undefined) gave Rango-impB inh 2.7%, Rango release inh -9% and miR-21 FLuc 0%.
`O=C(Cn1cc(S(=O)(=O)N2CCN(c3ccccc3F)CC2)c2ccccc2c1=O)NCCCN1CCCCCC1` gave Rango-impB inh -0.4%, GLA inh pH 4.5 -6, Rango release inh -2% and miR-21 FLuc -16%.
COc1ccc(-c2ccc(/C=N/N3C(=O)C4C5C=CC(C6CC56)C4C3=O)o2)c([N+](=O)[O-])c1 (centres undefined) was read as Rango-impB inh 3.0%, GLA inh pH 4.5 2, Rango release inh -5% and miR-21 FLuc -14%.

An excerpt; count on the stated rates, not on these rows.
